Screening data from PubChem BioAssay.
PfG6PD inh: PfG6PD (Plasmodium falciparum) enzyme inhibition. PfGluPho enzyme, NADPH resazurin-diaphorase fluorescence. inhibition, % at 20 µM. 350,000 tested, 0.78% active. AID 504690;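 active = inhibition reaching at least a set limit at 20 µM in the primary screen, cut at about 59% in these data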;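 note: 0% = DMSO wells with substrate and 100% = DMSO wells lacking glucose-6-phosphate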
UBC13 inh: inhibitors of human UBC13 polyubiquitin chain formation. TR-FRET. inhibition, % at 20 µM. 330,000 tested, 0.47% active. P61088; in the data active = inhibition above about 45%, passing the limit was not always enough
MIN6 prolif: MIN6 beta-cell proliferation induction. MIN6 cells proliferation, ATPlite luminescence, 48 h; cells starved in 0.2% serum; 100% = growth in 10% serum. proliferation, % at 10 µM. 330,000 tested, 0.29% active. AID 2380;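 active = compounds whose signal lies at least 3.5 SD above the mean of all wells on their plate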;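 note: 0% = DMSO-treated cells in low-serum medium and 100% = 10% serum control; some compounds called inactive have numbers as strong as hits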
HKDC1 inh: HKDC1 (human) hexokinase inhibition. Q2TB90. 340,000 tested, 0.16% active. AID 493160. recombinant HKDC1, G6PDH/diaphorase resazurin coupled fluorescence. inhibition, % at 20 µM;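 active = inhibition above about 35% when tested at 20 µM, limit read from the data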;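 note: plate controls were DMSO wells with enzyme for no effect and DMSO wells lacking enzyme for full effect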
Target sequence (Q2TB90 whole entry, looked up): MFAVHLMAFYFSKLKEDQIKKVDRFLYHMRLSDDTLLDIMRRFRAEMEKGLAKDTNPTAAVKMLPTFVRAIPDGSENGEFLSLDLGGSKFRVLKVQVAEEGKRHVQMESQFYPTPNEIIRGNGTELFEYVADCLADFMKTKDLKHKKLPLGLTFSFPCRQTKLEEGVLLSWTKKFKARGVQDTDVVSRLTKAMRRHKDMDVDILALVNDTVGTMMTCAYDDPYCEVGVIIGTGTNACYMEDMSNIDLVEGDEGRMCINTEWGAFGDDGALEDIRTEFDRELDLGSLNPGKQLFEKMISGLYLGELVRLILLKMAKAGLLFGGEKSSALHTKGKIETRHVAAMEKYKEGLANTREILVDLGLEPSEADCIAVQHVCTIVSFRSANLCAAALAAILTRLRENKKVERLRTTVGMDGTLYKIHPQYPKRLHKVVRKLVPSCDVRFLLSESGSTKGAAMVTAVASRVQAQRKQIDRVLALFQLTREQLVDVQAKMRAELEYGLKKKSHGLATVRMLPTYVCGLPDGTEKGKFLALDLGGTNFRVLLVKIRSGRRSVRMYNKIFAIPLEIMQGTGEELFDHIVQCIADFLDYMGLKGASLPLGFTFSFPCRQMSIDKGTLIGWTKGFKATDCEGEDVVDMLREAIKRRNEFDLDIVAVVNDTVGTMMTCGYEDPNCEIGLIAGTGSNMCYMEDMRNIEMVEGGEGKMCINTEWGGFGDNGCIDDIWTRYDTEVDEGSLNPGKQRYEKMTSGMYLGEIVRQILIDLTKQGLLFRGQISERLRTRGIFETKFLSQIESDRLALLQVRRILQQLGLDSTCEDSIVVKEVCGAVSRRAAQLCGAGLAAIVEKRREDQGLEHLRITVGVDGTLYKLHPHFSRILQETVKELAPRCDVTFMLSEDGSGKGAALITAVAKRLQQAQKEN
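test system = in-house recombinant HK5 (HKDC1) enzyme | amount = HKDC1 at 5 µg/mL | control set = DMSO-enzyme wells negative, buffer-substituted wells positive | compound = one dose of 20 µM, 1% DMSO | schedule = reaction time 90 min, room temperature, protected from light | technique = resorufin fluorescence at 613 nm | reagent = glucose with 1 mM ATP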
SENP8 inh: blocks human SENP8 cleavage of Nedd8 substrate; Q96LD8; recombinant SENP8, Nedd8 substrate fluorescence; inhibition, % at 20 µM; 360,000 tested, 0.64% active; in the data active = inhibition mostly above about 40%, no sharp cut-off; inactive = mostly below about 27%
SENP1 FRET inh: inhibitors of human SENP1 SUMO protease catalytic domain; Q9P0U3; inhibition, % at 10 µM; 360,000 tested, 0.21% active; recombinant SENP1 catalytic domain, CyPet-SUMO1-YPet FRET cleavage;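 active = inhibition at least 30% at 10 µM, raw YFP signal under a set limit, fluorescence ratio 0.5 to 1.5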;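 note: 0% = enzyme with DMSO and 100% = no enzyme wells; some results filed as inactive read as strong as hits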
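Test system: hSENP1 catalytic domain, recombinant; Amount: 20 pM final SENP1 enzyme; Medium: Tris pH 8 buffer plus EDTA, NaCl, BME, BSA, NP40, catalase; Schedule: 50 min enzyme reaction, room temperature, light-protected; Technique: FRET fluorescence in CFP and YFP emission channels; Controls: no-enzyme wells low, DMSO-plus-enzyme wells high control.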
Numbers without * were called inactive. These rows are one share of the data; count on the stated rates, not on these rows.

Screens in order: PfG6PD inh	UBC13 inh	MIN6 prolif	HKDC1 inh	SENP8 inh	SENP1 FRET inh
- Cc1cc(C(=O)COC(=O)c2ccc(Br)o2)c(C)n1C
 : 1	3	-2	-4	13	-1
- COc1cc(/C=C2\NC(=S)N(C)C2=O)ccc1O
 : 23	-30	-3	-7	-60	-49
- O=C(CSc1n[nH]c(-c2cccs2)n1)NCc1cccs1
 : 6	4	-3	4	-9	-4
- CCOC(=O)C1CCCN(C(=S)NC(=O)/C=C/c2ccc(F)cc2)C1 (stereo not given)
 : 8	-3	2	0	19	0
- Cc1ccc(Cn2nc(C)c(NC(=O)c3nn(C)cc3Cl)c2C)cc1
 : -7	8	-1	-4	22	1
- COc1cccc(/C=C/C(=O)OCC(=O)c2ccc3c(c2)NC(=O)CO3)c1OC
 : 8	28	1	-6	-436	-1
- COc1cc(NC(=O)c2ccc(-c3csc(C)n3)cc2)c(OC)cc1Cl
 : -8	-3	-3	-3	-32	-16
- CC(C)(C)NCCOCCOc1ccc(Cl)cc1C(C)(C)C
 : 9	9	-4	-4	9	1
- CNS(=O)(=O)c1cccc(C(=O)Nc2cccnc2)c1
 : 0	-1	-2	-6	30	1
- CCCn1c(C2CCCN2c2nc(-c3ccc(C)cc3)cs2)nc2cc(Cl)c(N3CCCCC3)cc21 (stereo not given)
 : -12	-7	-6	5	-8	-6
- COc1ccc(NC(=O)c2ccc(-n3cnnn3)cc2)c([N+](=O)[O-])c1
 : -5	-19	-2	3	22	13
- O=C(OCC(=O)c1ccco1)c1ccc2ncsc2c1
 : 12	-6	-2	4	-10	0
- CCOC(=O)C1CCN(C(=O)c2ccc(N(C)S(C)(=O)=O)cc2)CC1
 : 4	2	0	12	7	-1
- COc1ccc(CC2(CO)CCN(S(=O)(=O)c3sccc3C)CC2)cc1
 : -14	9	-1	13	12	-1
- Cc1ccccc1OCC(=O)Nc1ccc([N+](=O)[O-])cc1
 : -2	4	-2	-5	16	1
- O=C(CSc1n[nH]c(-c2cccs2)n1)N1CCCCC1
 : 16	1	1	-1	1	-2
- COC(=O)CCSc1nc(N2CCOCC2)c2c(c1C#N)CC(C)(C)OC2
 : 22	14	-3	-1	-25	0
- O=C1COc2ccc(C(=O)NC3CC3)cc2N1
 : 0	-4	3	-3	16	2
- NC(=O)C(c1ccc(Sc2ccccc2)nn1)c1ccc(Cl)cc1Cl (stereo not given)
 : 5	8	-3	2	15	2
- COc1ccc(NC(=O)c2cc(Br)ccc2Cl)c([N+](=O)[O-])c1
 : -2	2	4	-7	19	3
- O=c1cc(O)nc(SCc2ccccc2Cl)[nH]1
 : -10	0	-3	0	26	1
- Cc1ccc2cc(C#N)c(NCCNC(=S)NCCCN(C)C)nc2c1C
 : 9	28	-6	3	-380	-142
- Cc1cccc(Nc2ncnc3nc[nH]c23)c1
 : 9	2	3	-4	11	1
- Cc1nn(-c2ccccc2)c2[nH]c(=O)c(CNCC3CCCO3)cc12 (stereo not given)
 : -16	1	0	-1	-65	-3
- COc1ccccc1N1C(=O)N(CC(=O)C(C)(C)C)c2ccccc2S1(=O)=O
 : 1	-2	-1	-5	13	-2
- Cc1cc(C)c(C(N)=O)c(Nc2ccc3c(c2)OCCO3)n1
 : -12	6	-2	-6	15	1
- CCn1c(COc2ccc(C)cc2)nnc1SCC(=O)Nc1ccc(S(N)(=O)=O)cc1
 : -13	-5	-1	2	11	0
- O=C(Nc1cccc([N+](=O)[O-])c1)c1cc(S(=O)(=O)Nc2ccccn2)ccc1Cl
 : 10	4	-3	-1	-33	2
- CS(=O)(=O)c1ccc2nc(NC(=O)C3COc4ccccc4O3)sc2c1 (stereo not given)
 : -22	0	0	4	-9	-5
- CC1CCN(CCCNC(=O)CCCNC(=O)Cn2cnc3sc4c(c3c2=O)CCCC4)CC1
 : 10	13	1	-3	22	-2
- CC1CCN(C2(O)C(=O)Nc3ccc(Cl)cc32)CC1 (stereo not given)
 : 14	-2	2	-6	24	-3
- CCN1CCN(c2cc(-c3ccccc3)nc3cc(-c4cccc(F)c4)nn23)CC1
 : 17	38	-4	8	-475	-96
- Cc1cc(N/N=C\c2ccc(Br)cc2)nc(-n2nc(C)cc2C)n1
 : -2	13	-3	-1	6	-1
- C=CCSc1n[nH]c(-c2cccs2)n1
 : -4	-2	5	-4	9	1
- COc1ccccc1NC(=O)C(C)OC(=O)/C(=C/c1ccccc1)NC(C)=O (stereo not given)
 : -29	6	-2	3	3	2
- CCOC(=O)C1CCN(C(=O)c2ccc(S(=O)(=O)Nc3ccccc3OC)cc2)CC1
 : 8	0	-1	-5	9	3
- CCCn1c(C2CCCN2c2nc(-c3ccc(C)cc3)cs2)nc2ccccc21 (stereo not given)
 : 20	-14	-7	-1	-6	-1
- COc1cccc(OCC(=O)Nc2ccccc2C(N)=O)c1
 : 15	7	-2	-8	-32	1
- Cn1c(CC(=O)NNC(=O)c2ccccc2F)nc2ccccc21
 : -2	0	0	6	-6	0
- O=c1c(NCCc2ccc(Cl)cc2)c(-c2ccccc2)c1=O
 : -8	-5	-4	-4	13	0
- COC(=O)c1cc(NC(=O)c2c(Cl)cnn2C)cc(C(=O)OC)c1
 : -20	9	3	-8	12	2
- N#CC(c1ccncc1)(c1ncc(C(F)(F)F)cc1Cl)N1CCOCC1 (stereo not given)
 : 1	-3	2	6	36	1
- COc1cc2c(cc1OC)-c1cc(N3CCCCCC3)nc(=O)n1CC2
 : -15	2	3	18	-205	-15
- Cc1ccc(Nc2nc(C)cc(C)c2C(N)=O)cc1
 : -15	8	0	-3	11	0
- COc1ccc(OCC(=O)Nc2cccc(C(=O)Nc3ccccc3C(=O)O)c2)cc1
 : -6	0	0	-2	20	3

Single records, as listed above.
Cc1ccc(Nc2nc(C)cc(C)c2C(N)=O)cc1 is entered as PfG6PD inh: -15; UBC13 inh: 8; MIN6 prolif: 0; HKDC1 inh: -3; SENP8 inh: 11; SENP1 FRET inh: 0
COc1cc2c(cc1OC)-c1cc(N3CCCCCC3)nc(=O)n1CC2 is entered as PfG6PD inh: -15; UBC13 inh: 2; MIN6 prolif: 3; HKDC1 inh: 18; SENP8 inh: -205; SENP1 FRET inh: -15

Of the compounds above, seven have an aryl thioether with sulfur outside any ring:
Screens in order: PfG6PD inh	UBC13 inh	MIN6 prolif	HKDC1 inh	SENP8 inh	SENP1 FRET inh
- O=C(CSc1n[nH]c(-c2cccs2)n1)NCc1cccs1
 : 6	4	-3	4	-9	-4
- O=C(CSc1n[nH]c(-c2cccs2)n1)N1CCCCC1
 : 16	1	1	-1	1	-2
- COC(=O)CCSc1nc(N2CCOCC2)c2c(c1C#N)CC(C)(C)OC2
 : 22	14	-3	-1	-25	0
- NC(=O)C(c1ccc(Sc2ccccc2)nn1)c1ccc(Cl)cc1Cl (stereo not given)
 : 5	8	-3	2	15	2
- O=c1cc(O)nc(SCc2ccccc2Cl)[nH]1
 : -10	0	-3	0	26	1
- CCn1c(COc2ccc(C)cc2)nnc1SCC(=O)Nc1ccc(S(N)(=O)=O)cc1
 : -13	-5	-1	2	11	0
- C=CCSc1n[nH]c(-c2cccs2)n1
 : -4	-2	5	-4	9	1

(continued)
Screens in order: PfG6PD inh	UBC13 inh	MIN6 prolif	HKDC1 inh	SENP8 inh	SENP1 FRET inh
- C/C(=N\NC(=O)CSCc1ccc([N+](=O)[O-])cc1)c1ccccc1
 : 5	91*	2	3	15	3
- CNC(=O)CSc1nnc(-c2ccco2)n1-c1ccccc1
 : 3	-3	1	-2	0	1
- O=C(Nc1ccccc1C(=O)O)c1cccc(NC(=O)c2ccc(Br)o2)c1
 : -2	-3	-4	1	2	-1
- COC(=O)CSc1nnc(-c2ccco2)n1-c1ccc(C)cc1
 : -9	4	7.4*	-2	1	0
- O=C(Nc1ccc(S(=O)(=O)N2CCOCC2)cc1)c1ccc([N+](=O)[O-])s1
 : -8	-18	-7	1	39	-1
- COc1ccc(C(=O)Nc2ccc(S(=O)(=O)Nc3nccnc3OC)cc2)cc1OC
 : -4	-3	0	4	27	1
- CCN(CC)CC(=O)N1c2ccccc2Oc2c(c(=O)n(C)c(=O)n2C)C1c1cccc([N+](=O)[O-])c1 (stereo not given)
 : 6	2	0	-3	5	0
- CN(C)CCCNC(=S)NCCNc1nc2cc3c(cc2cc1C#N)OCO3
 : -13	7	0	6	-433	-137
- O=C(/C=C/NNC(=O)c1cccc(Br)c1)c1cccc(Br)c1
 : 18	-10	-5	-7	10	-3
- Cc1cccc2c1NC(=O)C2(O)N1CCCC(C)C1 (stereo not given)
 : -9	-7	0	3	2	0
- COC(=O)C1=NN(c2ccc(Cl)cc2)C2C(=O)N(c3ccccc3OC)C(=O)C12 (stereo not given)
 : 3	2	1	16	-409	-26
- COc1ccc(-c2cc3ccccc3oc2=O)cc1NC(=O)c1cccnc1
 : 0	-7	-3	-7	-290	-14
- CN1C(=O)/C(=C/c2cc(C(C)(C)C)c(O)c(C(C)(C)C)c2)NC1=S
 : -3	-2	-1	-9	-3	-98
- O=C1COc2ccc(C(=O)/C=C/c3ccccc3)cc2N1
 : -2	-7	-6	7	13	2
- CC(NS(=O)(=O)c1ccc(Cl)cc1)C(=O)OCC(=O)c1ccc[nH]1 (stereo not given)
 : 3	-31	-6	0	-24	-6
- CCCCCn1nc(C)c(/C=N\NC(=O)c2cc(C)oc2C)c1C
 : 0	0	-3	-11	4	-1
- CC(C)NC(=O)CNc1ccc(C(F)(F)F)cc1[N+](=O)[O-]
 : -4	-9	-2	13	19	-4
- Cc1ccc(S(=O)(=O)NCc2ccc(C(=O)N3CCN(Cc4ccccc4)CC3)cc2)cc1
 : -7	6	-1	-8	10	2
- COc1ccc(C2c3ccc(O)cc3Oc3ncn4nc(-c5ccncc5)nc4c32)cc1OC (stereo not given)
 : -8	4	1	-5	8	-22
- COc1ccc(NC(=O)c2cccnc2)c([N+](=O)[O-])c1
 : 9	-21	-2	-7	2	0
- Cc1ccc(NC2SC(=O)N(CC(=O)O)C2=O)cc1 (stereo not given)
 : -18	2	-2	-6	12	2
- O=c1c(NCCc2ccccc2)c(-c2ccccc2)c1=O
 : 4	1	-4	-7	14	0
- COc1ccc(-n2ncc3c(NC(C)C)ncnc32)cc1
 : 13	23	-2	-1	-155	-4
